From PubChem
BJeLR lethal: kills HRASV12-expressing BJeLR cells | BJeLR (HRASV12) viability, CellTiter-Glo ATP luminescence, 48 h; reference of the scale not given here | inhibition, % (concentration not given with the values) | hit rate 0.17% among 300,000 | AID 1554;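 active means replicate mean above 50%; inconclusive means above 50% but judged a plate artefact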;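 further: 50 nL library stock added to about 25 µL; numbers are from one replicate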
Autofluor counter: compound fluorescence in toxin protease inhibitor counterscreen. hit rate 3.1% among 360,000. fluorescence intensity (test concentration not listed). compound autofluorescence counterscreen, microsphere flow cytometry; hits give high values;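 active means at least 3 SD above the mean of all compounds, about 16000 in these data; inconclusive means too few beads counted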;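 further: 100 nL of 1 mM stock went into each well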
Mtb hypoxia rep: Mtb hypoxia fluorescent reporter inhibition. M. tuberculosis hypoxia-regulated fluorescent reporter, fluorescence. fluorescence inhibition, % (test concentration not listed). hit rate 0.1% among 300,000. AID 1159583;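 active means 35 to 45% if threefold the growth effect, above 45% if 1.5-fold the growth effect; inactive means the rest, general growth blockers included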;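 further: wells of about 50 µL received 100 nL stock; 0% = vehicle wells and 100% = reference inhibitor wells; whole bacteria with a GFP reporter of the hypoxia response; strong numbers were not always called active; many hits fall short of the cut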
PrP UTR inh: suppresses PrP 5' UTR mRNA reporter expression; cell-based PrP 5' UTR mRNA reporter, plate reader; inhibition, % (concentration not given with the values); hit rate 0.35% among 340,000; AID 488862;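 active means every replicate at 50% or more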;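 further: 0 = median of the neutral control wells; tested in H4 reporter cells; numbers are from one replicate; inactives centre near -14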
Sa RN4220 lethal: kills Staphylococcus aureus RN4220; S. aureus RN4220 growth, OD600, 16 h; AID 1259311; hit rate 0.33% among 330,000; inhibition, % (no concentration beside the values);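 active means z-score of -3 or lower and OD600 up to 0.18 on both plates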;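 further: plate controls were untreated cells for no effect and reference antibiotic for full effect; stock transfer was 100 nL into about 80 µL; one replicate is shown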
ugtP null kill: kills S. aureus RN4220 lacking UgtP. S. aureus RN4220 ugtP deletion, OD600 growth, 16 h; some inactives read as strong as hits. growth inhibition, % (concentration not given with the values). hit rate 0.54% among 330,000. AID 1259309;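 active means z-score under -3 and OD600 up to 0.15 on both plates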;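 further: plate controls were untreated wells for no effect and antibiotic for full effect; wells of about 80 µL received 100 nL stock; the first replicate is given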
Mtb hypoxia rep growth: further read-out of Mtb hypoxia rep, marked with its call; growth inhibition, %; measured here: M. tuberculosis growth (absorbance);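 0% = vehicle and 100% = reference antibiotic; read after six days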
* marks the source's active call; other numbers are inactive results; ? = inconclusive; . = no result given.

no. | mol | BJeLR lethal | Autofluor counter | Mtb hypoxia rep | Mtb hypoxia rep growth | PrP UTR inh | Sa RN4220 lethal | ugtP null kill
1 | CCOc1ccc(C(=O)NCCCN2CCOCC2)cc1OCC | -3 | 3958 | 6 | -5 | -4 | 3.3 | 5
2 | O=C(Nc1ccc(C2CCCCC2)cc1)C1CCCN(c2ncccn2)C1 (configuration not stated) | 5 | 22140* | -5 | -4 | -12 | 2.7 | 1
3 | CC(=O)N1CCc2cc(S(=O)(=O)NC(C(=O)Nc3ccc4c(c3)OCCO4)C(C)C)ccc21 (configuration not stated) | -3 | 3425 | . | . | -8 | 1.5 | 12
4 | CC(=O)Nc1ccc(NC(=O)Cn2cc3c(n2)CCC(C)C3)cc1 (configuration not stated) | 11 | . | 1 | 7 | . | -11 | -5
5 | COc1ccc(OC)c(/C=N/NC(=O)c2cc(-c3ccc(C)o3)nc3ccccc23)c1 | 4 | 8658 | . | . | -8 | . | .
6 | CC(C(=O)Nc1c2c(cc3c1CCC3)CCC2)N1CCCC1 (configuration not stated) | 10 | 10393 | 1 | -6 | -23 | 2.6 | 6
7 | COc1ccc(NC(=O)c2cnc(C)cn2)cc1-n1cnnn1 | 4 | 4883 | 15 | 3 | -25 | 0.3 | 5
8 | COC(C(=O)NC(C(C)C)C(C)C)c1ccccc1 (configuration not stated) | 0 | 2007 | 17 | 7 | 1 | 2.3 | -2
9 | CCCCN1CN(Cc2ccco2)CNC1=S | 7 | 2014 | -5 | -8 | -2 | 5.7 | 3
10 | O=C(Cc1ccccc1[N+](=O)[O-])N1CCN(c2ccc(F)cc2)CC1 | 11 | 4766 | 2 | -8 | -12 | 1.3 | 1
11 | CC(C)Nc1oc(Cc2cccc3ccccc23)nc1C#N | -5 | 24202* | 4 | 4 | -7 | 5.3 | -10
12 | O=C(c1ccc(COc2ccccc2Cl)o1)N1CCCC1 | -9 | 3936 | . | . | -14 | 4.7 | 6
13 | CC(C)(C)n1nnnc1C(c1cccnc1)N1CCN(c2ccccn2)CC1 (configuration not stated) | 2 | 4182 | 4 | 0 | -26 | 6.4 | 3
14 | CCc1ccc(C(=O)COC(=O)c2cccnc2Cl)cc1 | -5 | 3760 | 16 | 0 | -2 | 2.8 | 7
15 | COCCCN1C(=O)c2ccc(C(=O)O)cc2C1=O | -12 | 21024* | 4 | -2 | -11 | 2.4 | 1
16 | CCC(C)c1ccc(S(=O)(=O)N2CCN(S(=O)(=O)c3ccc(NC(C)=O)cc3)CC2)cc1 (configuration not stated) | -9 | 5075 | -18 | -3 | -14 | 8.3 | 7
17 | COC(=O)c1cc(S(=O)(=O)N2CCC(c3ccccc3)C2)c[nH]1 (configuration not stated) | 9 | 6057 | -5 | -3 | -26 | 1.7 | 11
18 | COc1ccc(CCNC(=O)CSc2nnc(NC(C)=O)s2)cc1OC | 12 | 2080 | 8 | 4 | -11 | 0.8 | 7
19 | CN(C)C1=NC[C@H](Cc2ccccc2)N1CC1CCCCC1 | . | 3048 | 4 | 8 | 7 | 18 | 21
20 | C/C=C\C=C/C(=O)Nc1cccc(C2=NOC3(C2)C[C@H](C(N)=O)N(C(=O)CC)C3)c1 (some centres not stated) | -2 | 3533 | 4 | 7 | -7 | -7.8 | -7
21 | CCC(OC(=O)CCc1nc2ccccc2[nH]c1=O)C(=O)c1ccccc1 (configuration not stated) | 4 | 17407* | 0 | 1 | -7 | 3.9 | 3
22 | Cc1ccc(CN2C(=O)S/C(=C\c3ccccc3OCC(=O)O)C2=O)cc1 | 13 | 4393 | 2 | 7 | 81* | 3.1 | 6
23 | CN(C(=O)C1CCCO1)c1nnc(-c2ccccn2)s1 (configuration not stated) | 9 | 3619 | . | . | -17 | 0.3 | 4
24 | COc1ccc(C2C(C#N)=C(N)SC(N)=C2C#N)cc1OC | 8 | ? | 6 | 1 | -20 | 9.4 | 3
25 | OC(CCN1CC2CCC(CC2)C1)(Cc1ccccc1)c1ccco1 (configuration not stated) | . | 3918 | 3 | -1 | -21 | 3.5 | -5
26 | Cc1nc(SCC(=O)OCc2ccccc2)c(C#N)c(-c2ccccc2)c1C(=O)Nc1ccccc1 | -2 | 3844 | 11 | 8 | -22 | 1.4 | -10
27 | CCN1C(=O)C2(/C(=C(\O)c3ccc4c(c3)OCCO4)C(=O)C(=O)N2CCCOC)c2ccccc21 (configuration not stated) | -7 | 2566 | 5 | -1 | -3 | -0.3 | 9
28 | CC(=O)Nc1ccc(S(=O)(=O)NCC2CCC(C(=O)N3CC(C)CC(C)C3)CC2)cc1 (configuration not stated) | 5 | 4018 | 14 | 1 | -16 | 5.2 | 2
29 | Cc1cc(C(C)(C)C)c(O)c(C)c1CC1=NCCN1 | 5 | 5247 | 9 | 2 | -44 | 3.8 | 1
30 | O=C(COC(=O)c1ncc(Cl)c(Cl)c1Cl)c1ccc(Cl)s1 | -4 | 9735 | -2 | -3 | -9 | 2.5 | 2

Molecules above that have a furan ring, fused or not (4):
no. | mol | BJeLR lethal | Autofluor counter | Mtb hypoxia rep | Mtb hypoxia rep growth | PrP UTR inh | Sa RN4220 lethal | ugtP null kill
5 | COc1ccc(OC)c(/C=N/NC(=O)c2cc(-c3ccc(C)o3)nc3ccccc23)c1 | 4 | 8658 | . | . | -8 | . | .
9 | CCCCN1CN(Cc2ccco2)CNC1=S | 7 | 2014 | -5 | -8 | -2 | 5.7 | 3
12 | O=C(c1ccc(COc2ccccc2Cl)o1)N1CCCC1 | -9 | 3936 | . | . | -14 | 4.7 | 6
25 | OC(CCN1CC2CCC(CC2)C1)(Cc1ccccc1)c1ccco1 (configuration not stated) | . | 3918 | 3 | -1 | -21 | 3.5 | -5

Going on with the list:
no. | mol | BJeLR lethal | Autofluor counter | Mtb hypoxia rep | Mtb hypoxia rep growth | PrP UTR inh | Sa RN4220 lethal | ugtP null kill
31 | CCCCc1c(O)nc(SCC(=O)N2CCOCC2)n(-c2ccccc2C)c1=O | -6 | 9723 | -5 | 1 | -14 | 1.4 | -5
32 | CCOCCn1cnc2sc(C(=O)NCCCN3CCOCC3)c(C)c2c1=O | -1 | 5777 | 7 | 7 | -8 | -0.4 | -4
33 | CCOC(=O)C1=C(O)/C(=C/c2cccc(OC)c2O)N=C1C | -1 | 4219 | 11 | 0 | -24 | 2.7 | 1
34 | CCOc1ccc(/C=N/n2nnnc2N)cc1O | -4 | 6085 | . | . | 0 | . | .
35 | CN1CCN(C(=O)CCN2C(=O)c3ccccc3S2(=O)=O)CC1 | 4 | 3853 | -4 | -4 | -12 | 7.3 | 9
36 | CC(C)CN(Cc1cc(=O)oc2cc(-c3ccccc3)c(O)cc12)CC(C)C | 3 | 4843 | 10 | 17 | -6 | 4.1 | -23
37 | CCOC(=O)c1cc2c(=O)n3ccccc3nc2n(CCCOC)c1=NC(=O)C(C)(C)C | -6 | 4075 | 4 | 8 | 7 | -0.1 | -5
38 | COc1ccc(-c2nc3ccccc3c(=O)n2NC(=O)Cc2ccccc2)cc1 | -3 | 10603 | 3 | -1 | -19 | 4.5 | -1
39 | O=c1oc2ccccc2c2c1C(O)CO2 (configuration not stated) | -2 | 3036 | 7 | 3 | 0 | 1.1 | 5
40 | CCN(CC)C(=O)c1ccc(N(Cc2ccccc2)S(C)(=O)=O)cc1 | -3 | 4003 | 18 | 0 | -15 | 0.6 | 7
41 | COC(=O)C1=C(c2cc3ccccc3o2)C[C@@H]2CC[C@H]1N2C(=O)NC1CCCCC1 | 4 | 3574 | . | . | -6 | . | .
42 | COc1ccc(CN2CC(C(=O)NCCCN3CCN(C)CC3)CC2=O)cc1 (configuration not stated) | 1 | 2480 | 19 | 3 | -24 | 15 | 19
43 | COc1ccc(NC(=O)NNc2cc(N3CCOCC3)nc(N3CCOCC3)n2)cc1 | 2 | 3284 | 9 | 9 | 9 | 1.6 | 12
44 | CCCn1c(=N)n(CC(=O)c2cccs2)c2ccccc21 | 7 | 10703 | 17 | -1 | 12 | 1.3 | -4
45 | CCC(NC(=O)c1cc(COc2ccc(Cl)cc2OC)on1)c1ccncc1 (configuration not stated) | -4 | 5398 | 0 | 1 | -47 | 6.4 | 4
46 | CCCCSc1cc(C)nc(N)n1 | 3 | 4257 | 7 | 13 | -38 | 5.6 | 8
47 | CCOC(=O)C1CCN(c2ncnc3c2[nH]c2cccc(OC)c23)CC1 | -7 | 3131 | 4 | 9 | -3 | 1.0 | 3
48 | COc1ccc(C(=O)Nc2nc(N)n(-c3ccccc3)n2)cc1 | 5 | 7733 | -1 | 3 | -16 | 9.1 | 7
49 | O=C(Cc1ccccn1)c1ccccc1 | 7 | 3901 | 13 | 9 | -12 | 5.6 | -11
50 | O=C(Nc1ccc(Br)cc1)c1cccc2c1C(=O)N(C1CCCCC1)C2 | 1 | 5837 | 5 | 11 | 1 | -9.1 | -12
51 | CC(C)CC1CN=C(N)N1CC1CCCN1CC(C)N1CC(Cc2ccccc2)N(CCc2ccc(Cl)c(Cl)c2)C1=N (configuration not stated) | . | . | 91* | 49* | . | 101* | 101*
52 | CCOC(=O)CCc1c(C)c2ccc(OCC(=O)OC(C)C)cc2oc1=O | 0 | 3554 | 22 | 5 | -2 | 1.0 | 23
53 | CC(OC(=O)c1ccccc1OCc1ccc(Cl)cc1)C(N)=O (configuration not stated) | 10 | 4814 | -2 | 2 | -18 | -1.5 | 3
54 | COc1ccc(-c2nc3ccccc3c(=O)n2CCOc2c(C)cccc2C)cc1 | 6 | 2641 | 0 | 3 | -19 | -9.7 | 60
55 | COc1ccc2[nH]cc(CCNS(=O)(=O)c3ccc(F)cc3)c2c1 | 5 | 3376 | 6 | -3 | -19 | 6.1 | 6
56 | Cc1cc([N+](=O)[O-])ccc1NC(=S)NC(=O)Cc1ccccc1 | 4 | 2198 | . | . | -4 | -11 | 73
57 | O=C(Nc1cccc(Cl)c1)c1ccc(F)c(S(=O)(=O)N2CCN(c3ccccn3)CC2)c1 | 14 | 2600 | -2 | 3 | -25 | 0.4 | -2
58 | Cc1cc(C)cc(NC(=S)Nc2ccc3cn[nH]c3c2)c1 | 2 | 7608 | -2 | 2 | -8 | -11 | -4
59 | COc1ccc(OC)c(/C=C2\Oc3cc(OCC(=O)N4CCC[C@H]4C(=O)O)ccc3C2=O)c1 | -9 | 5059 | . | . | -71 | 3.5 | -4
60 | COc1ccc(OC)c(C2C(C(=O)c3cccs3)=C(O)C(=O)N2CCN2CCOCC2)c1 (configuration not stated) | -3 | 3594 | -2 | 0 | -27 | -0.2 | 4
61 | c1cc2c3c(cccc3c1)NC(c1ccc3c(c1)OCO3)N2 | -2 | 3217 | 15 | -1 | -22 | -4.3 | -13
62 | COc1ccc(NS(=O)(=O)c2cc(OCC(N)=O)c(C)cc2Cl)cc1 | 7 | 2574 | 8 | 9 | -13 | 2.1 | 0
63 | Cn1c(=O)c2c3c(sc2n2cnnc12)CCC3 | -2 | 3279 | . | . | -8 | 5.7 | -3
64 | CC(=O)c1ccc(Oc2cc(C)nc(-n3nc(C)cc3C)n2)cc1 | 51* | 2667 | . | . | 64* | -7.4 | 11
65 | CC(C)CC(NC(=O)C1CCC(C)CC1)C(=O)NCc1ccccn1 (configuration not stated) | -1 | 4075 | -9 | -1 | 4 | 2.6 | -1
66 | CC(C)(C)OC(=O)Nc1ccc([C@@H](NC(=O)OC(C)(C)C)C(=O)OC(C)(C)C)cc1 | . | 3897 | 6 | -1 | -9 | -14 | 7
67 | O=C1C(N2CCOCC2)=C(n2nnc3ccccc32)C(=O)c2ccccc21 | 41 | 2371 | . | . | -18 | 23 | 8
68 | O=C(Nc1nccs1)c1ccc(-c2ccc(Cl)cc2)o1 | 9 | 3358 | -2 | 5 | -62 | 25 | 10
69 | CCc1ccc(NC(=S)N(CCCN2CCOCC2)Cc2ccco2)cc1 | -4 | 4374 | 8 | 2 | -20 | -2.1 | 6
70 | Cc1oc2c(c1C(=O)NCc1cccnc1)C(=O)c1ccccc1C2=O | 76* | . | 19 | 11 | . | 91* | 88
71 | CCC(C)Sc1cc(C)c(C#N)c2nc3ccccc3n12 (configuration not stated) | 5 | 2467 | 7 | 9 | -6 | -2.2 | -5
72 | O=C(CSc1nnc(-c2ccccc2)c(-c2ccccc2)n1)N1CCOCC1 | 0 | 3431 | -7 | 6 | -5 | 9.1 | 2
73 | COc1ccc(OCC(=O)Nc2ccc(NC(=O)c3cccs3)c(OC)c2)cc1 | -6 | 4441 | 2 | -3 | -16 | -0.3 | -3
74 | CCCOC(=O)c1ccc(NC(=O)c2cn(CC)c3nc(C)ccc3c2=O)cc1 | -9 | . | -6 | -6 | . | -2.0 | 11
